# TRPV1 potentiator – HTS Assay for Compounds that Act as Potentiators of the Vanilloid Receptor 1; Transient receptor potential cation channel subfamily V member 1 (Homo sapiens), Q8NER1; AID 540277, 2011; actives 0.02% (n = 320,000); TRPV1-expressing cells, Fluo-8 calcium influx, capsaicin EC20 potentiation; host cell line not named in the record; control for the full effect not named in the record; potentiation, % at 8.33 µM; active means potentiation above 80%; inconclusive means 30% to 80%; inactive means below 30%; further: 0% is about no effect
# Target sequence (Q8NER1 whole entry, looked up): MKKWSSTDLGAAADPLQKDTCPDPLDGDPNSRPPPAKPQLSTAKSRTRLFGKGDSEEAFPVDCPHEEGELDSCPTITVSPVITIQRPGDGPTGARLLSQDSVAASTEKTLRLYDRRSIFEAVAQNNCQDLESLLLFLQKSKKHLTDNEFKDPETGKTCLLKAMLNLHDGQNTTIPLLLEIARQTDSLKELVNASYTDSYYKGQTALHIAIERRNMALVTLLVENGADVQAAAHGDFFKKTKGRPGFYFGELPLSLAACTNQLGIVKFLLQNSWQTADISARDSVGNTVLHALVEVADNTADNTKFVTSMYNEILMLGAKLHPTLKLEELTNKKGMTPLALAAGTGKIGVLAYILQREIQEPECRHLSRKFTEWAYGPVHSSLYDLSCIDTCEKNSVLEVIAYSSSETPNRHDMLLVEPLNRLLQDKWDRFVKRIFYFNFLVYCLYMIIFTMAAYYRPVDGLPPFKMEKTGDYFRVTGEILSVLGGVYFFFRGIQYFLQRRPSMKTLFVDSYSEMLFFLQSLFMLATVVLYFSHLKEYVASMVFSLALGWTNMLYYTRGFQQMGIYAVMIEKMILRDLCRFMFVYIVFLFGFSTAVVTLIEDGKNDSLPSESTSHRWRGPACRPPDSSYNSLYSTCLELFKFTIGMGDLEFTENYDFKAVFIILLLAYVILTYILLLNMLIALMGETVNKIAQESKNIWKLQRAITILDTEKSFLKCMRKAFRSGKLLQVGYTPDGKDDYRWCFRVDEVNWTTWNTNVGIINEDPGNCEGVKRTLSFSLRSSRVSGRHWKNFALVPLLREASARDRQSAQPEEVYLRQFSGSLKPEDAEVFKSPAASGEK
#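 Cells expressing TRPV1 were dye-loaded with Fluo-8 and read kinetically: 10 s baseline, 3 min after compound (agonist portion), then 2 min after EC20 capsaicin (allosteric enhancer portion). Calcium-bound dye fluorescence at 480/520 nm.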
# ClpP mod – qHTS Assay for Activators of ClpP. ATP-dependent Clp protease proteolytic subunit (Bacillus subtilis (strain 168)), P80244. purified B. subtilis ClpP, FRET peptide cleavage, 20 min. Potency, µM (titrated, usually from 57.5 µM), for the others: at the highest dose activity change, negative = active. actives 1.9% (n = 340,000); active = well fitted falling curve with a large enough effect; inconclusive = small, poorly fitted or top-dose-only effect; inactive = no such curve, though single readings can be large or run the other way; further: potency means the concentration at half of the fitted maximal effect; the source files actives as falling curves though it sought activators and does not explain the sign; nearly all actives have a fitted effect of over 65% in size; many hits overshoot -100%
# Target sequence (P80244 whole entry, looked up): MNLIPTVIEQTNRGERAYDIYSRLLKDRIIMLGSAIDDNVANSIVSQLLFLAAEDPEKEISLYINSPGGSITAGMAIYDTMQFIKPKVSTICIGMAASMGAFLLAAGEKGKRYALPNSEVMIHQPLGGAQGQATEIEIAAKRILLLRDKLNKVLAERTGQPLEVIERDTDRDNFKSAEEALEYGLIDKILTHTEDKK
#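 ClpP 10 microg/mL final, pH 8 Tris/KCl buffer with BSA, glycerol, Tween-20; compound pinned in; FRET-FV substrate; RT 20 min; Ex320/Em430; ΔFRET vs ADEP 5.8 microM, DMSO, no enzyme.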
# CtBP-E1A inh – qHTS Assay for Inhibitors of the CtBP/E1A Interaction; AlphaScreen GST-E1A/His-CtBP binding, 1536-well; stronger effect = lower value; control for the full effect not named in the record; activity change, % (concentration not given with the values); actives 0.49% (n = 340,000); in the data active means activity change below about -65%; inconclusive means about -30% to -65%; inactive means above about -30%; further: on the % scale 0 is the no-effect control and ±100 the full control effect
#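 AlphaScreen with 125 nM GST-E1A and 125 nM His-CtBP (5X stocks) in Tris pH 8.0, 300 mM NaCl, BSA, Tween 20, TCEP. Compounds preincubated 2 h at 37 deg C, then glutathione donor/nickel acceptor beads added for 1 h at 37 deg C in dark.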
# gsp antag – qHTS for Antagonists of gsp, the Etiologic Mutation Responsible for Fibrous Dysplasia/McCune-Albright Syndrome: qHTS; gsp-mutant cells, cAMP HTRF, 30 min; control for the full effect not named in the record; actives 0.4% (n = 340,000); Potency, µM (doses to about 76.9 µM), for the others: at the top dose activity change, negative = inhibition, hits mostly inhibitors; active = falling curve of any shape with a large fitted effect; inconclusive = falling curve, mostly with a smaller effect; inactive = flat or rising curve; cell line not stated here;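 further: intracellular cAMP measured with PDE inhibitor Ro 20-1724 present during compound exposure; potency means the concentration at half of the fitted maximal effect; on the % scale 0 is the no-effect control and ±100 the full control effect; nearly all actives have a fitted effect of over 65% in size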
#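 Measurement of cellular cAMP by homogeneous time-resolved fluorescence following a 30 min compound exposure at 37C. The PDE inhibitor […] was present throughout; the assay buffer was DPBS with 0.05% BSA and 0.005% Tween 20.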
# gsp agonist – qHTS for Agonist of gsp, the Etiologic Mutation Responsible for Fibrous Dysplasia/McCune-Albright Syndrome: qHTS; gsp mutant cells, cAMP HTRF, 30 min; control for the full effect not named in the record; Potency, µM (top dose mostly 76.9 µM), inactives show at the top dose activation (cAMP increase), most hits filed as activators; actives 0.13% (n = 340,000); AID 624287, 2012; active = well fitted activation curve with a large enough effect; inconclusive = small, poorly fitted or top-dose-only effect, or another doubt; inactive = no such curve, though single readings can be large or run the other way; cell line not stated here;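 further: phosphodiesterase inhibitor Ro 20-1724 added with compounds to block cAMP breakdown; potency means the concentration at half of the fitted maximal effect; nearly all actives have a fitted effect of over 60% in size; about a fifth of the inactives were tested at one dose only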
#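 Cells in DMEM/10% FBS with G418 were pretreated with compounds in DMSO plus […] (300 uM stock) for 30 min at 37C. cAMP was measured by HTRF (cAMP-d2 plus anti-cAMP antibody-K) after 30 min at room temperature.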
# Menin-MLL FL inh – qHTS Assay for Inhibitors Targeting the Menin-MLL Interaction in MLL Related Leukemias: Competition With Fluorescein Labeled MLL-derived Peptide; Fluorescence polarization, fluorescein-MLL peptide displacement from menin; FP activity change, % at 61.4 µM; 290,000 tested, under 10 active; AID 1766, 2009; inconclusive = falling polarisation curve, or a change in total fluorescence; inactive = total fluorescence flat and polarisation flat or rising; no compound was filed as active; the % refers to the polarisation; negative = inhibition;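 further: % of control where 0% means no effect; inhibitors lower the polarisation; unlabelled MLL peptide was the positive control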
# Sfp inh – qHTS Assay for Inhibitors of Bacillus subtilis Sfp phosphopantetheinyl transferase (PPTase); 4'-phosphopantetheinyl transferase ffp (Bacillus subtilis), Q9F4F7; Biochemical Sfp PPTase activity, qHTS; Potency, µM, inactives show max response, negative = inhibition, actives largely listed as inhibitors; actives 3.5% (n = 310,000); active means well fitted inhibition curve with a large enough effect; inconclusive means small, poorly fitted or top-dose-only effect, or another doubt; inactive means no such curve, though single readings can be large or run the other way;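 further: the enzyme is Sfp with the accession as filed and its product quenches rhodamine fluorescence; potency means the concentration at half of the fitted maximal effect; 0% = enzyme reaction without inhibitor and -100% = no enzyme wells; top concentration of the series not given in the record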
#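 Fluorescence-quenching assay with 15 nM Sfp, 5 uM rhodamine-CoA and 12.5 uM BHQ-2-labelled ybbR peptide in pH 7.6 Hepes/MgCl2 buffer. Enzyme was pre-incubated with compound for 15 min at room temperature. Rate was taken from the 30-min fluorescence change (525/598 nm).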
# * hit, by the source's call; ? = inconclusive; . = not tested or not shown; & = joins results of further samples; [ ] = another dose, or the depositor's remark.
SMILES,TRPV1 potentiator,ClpP mod,CtBP-E1A inh,gsp antag,gsp agonist,Menin-MLL FL inh,Sfp inh
O=C1CN(C(=O)COC(=O)CCc2ccccc2)c2ccccc2N1,.,-2.8%,0,8%,-3%[15.4 µM],.,.
COc1cc(NC(=O)c2ccc(COc3ccccc3Br)o2)cc(OC)c1OC,6,-3.8%,-10,-9%,-11%,1.1,16%
COc1ccc(OCCCCn2c(CO)nc3ccccc32)cc1,1,.,-2,-7%,-24%,4.4,7%
CN1CCN(C(=O)CSc2nc(-c3ccco3)cc(C(F)(F)F)n2)CC1,-28,.,5,-6%,1%,1.4,0%
CCOc1ccc(N/C(C)=C\C(=O)c2ccc3c(c2)OCCO3)cc1,6,.,0,.,23%[15.4 µM],10,-2%
COc1ccc(NC(=O)C(C)N2c3cccc4cccc(c34)S2(=O)=O)cc1 (centres undefined),16,-17%,7,-6%,3%,-1.0,0%
O=C1CSC(c2ccccc2Cl)N1 (centres undefined),5,.,-1,22%,5%[15.4 µM],1.7,13%
CCOC(=O)c1nc(Nc2cccc(C)c2)c2ccccc2n1,3,-0.2%,1,-11%,-2%[15.4 µM],-2.5,15%
Cc1ccc(C2=CC(=O)C[C@H](c3ccc(Cl)cc3)C2)cc1,-6,-1.7%,10,-6%,-3%,.,.
Cc1onc(-c2ccccc2)c1CNC(=O)Nc1ccc(F)cc1F,-5,0.5%,6,1%,21%,4.1,16%
CCOC(=O)c1ccc2nc(NC(=O)c3ccco3)sc2c1,-14,?,-4,-20%,-10%,-4.7,-3%
C=CCn1c(=O)c(C(=O)Nc2ncccc2O)c(O)c2ccccc21,2,.,-10,-3%,?,?,0%
O=C(NC12CC3CC(CC(C3)C1)C2)c1ccc(-c2ccccc2Cl)o1,-27,?,1,-11%,?,2.6,-4%
Cc1nn(C)c(Oc2cccc(Cl)c2)c1C(=O)Nc1ccc(F)cc1F,-8,-1.4%,7,-15%,3%,2.6,-3%
COc1cccc(CC(=O)NC2CCSc3ccccc32)c1 (centres undefined),-9,.,-3,-4%,2%[15.4 µM],-0.6,11%
CCOc1ccc(CCNC(=O)c2cc3sccc3n2CC)cc1OCC,16,-1.3%&0.1%,-15,-17%,34%,3.9,10%
N#Cc1c(-c2ccc(F)cc2)c(-c2ccc(F)cc2)nn(CCO)c1=O,.,-11%,1,-2%,-3%,.,.
CC(=O)N1[C@H](C)C=C[C@]1(Cc1ccccc1)C(=O)NCCN1CCOCC1,.,2.1%,1,5%,-52%[inhibitor],1.0,19%
COc1cccc(N=Nc2c(=O)[nH]n3c(C)cc(C)nc23)c1,0,-1.1%,-1,?,27%[15.4 µM],6.3,-25%
CCn1cc(C(=O)N2CCCc3ccccc32)c2cc(OC)c(OC)cc2c1=O,-1,-1.0%,-1,6%,12%[15.4 µM],2.4,9%
CCCCC(=O)NC1(C(F)(F)F)C(=O)N(CC(C)C)C2=C1C(=O)CC(C)(C)C2 (centres undefined),-4,-0.2%,13,7%,6%,0.1,11%
Cc1ccc(C(C(=O)NC(C)(C)C)N(Cc2ccco2)C(=O)CCC(=O)Nc2ccccn2)cc1 (centres undefined),-11,.,-17,5%,1%[15.4 µM],.,7%
CCOc1ccc(S(=O)(=O)NC(Cc2c[nH]c3ccccc23)C(=O)O)cc1 (centres undefined),6,-0.3%,.,5%,-14%,12,8%
Fc1ccc2nc(-c3ccccc3)nc(SCc3nnc(-c4ccccc4)o3)c2c1,12,-15%,3,-5%,4%,-4.7,-5%
Cc1ccc(OC(C)C(=O)N2CC(=O)Nc3ccccc32)c(C)c1 (centres undefined),0,.,1,6%,?,-4.1,14%
N#Cc1ccccc1OCC(=O)OCC(=O)N1CCN(C(=O)c2ccco2)CC1,1,-0.8%,3,9%,-3%[15.4 µM],0.4,10%
O=C1C=CC(=O)N1Nc1ccc(Br)cc1,11,2.0%,1,-5%,-15%[15.4 µM],.,11%
Cc1nnc(SC(C)C(=O)Nc2ccc(S(=O)(=O)NC3CCCCC3)cc2)s1 (centres undefined),9,-1.3%,6,8%,-53%,2.3,9%
O=C(CSCc1c[nH]c(=O)[nH]c1=O)OCC(=O)c1ccc(Br)cc1,-2,.,-6,5%,-94%[inhibitor],1.5,27%
COc1ccc(C(=O)Nc2nnc(C3=COCCO3)o2)cc1,-3,-0.1%,?,0%,-11%,.,-15%
Cc1nc(-c2ccc(C(=O)N3CCOCC3)cc2)cs1,3,-4.5%,5,7%,27%,-2.0,2%
CCOC(=O)c1sc(NC(=O)CSc2nc3ccccc3s2)c(C(=O)OCC)c1C,3,.,.,.,.,1.6,-10%
c1cc2c3c(cccc3c1)NC1(CCC3(CC1)Nc1cccc4cccc(c14)N3)N2,16,4.1%,.,?,-46%,-3.0,?
O=C1c2ccccc2C(=O)C12OC2c1cccc2ccccc12 (centres undefined),21,.,-25,?,-1%[15.4 µM],-20,28µM*
COc1ccc2ccccc2c1/C=N/NC(=O)c1nnn(-c2nonc2N)c1C(C)C,19,.,-26,?,1%,.,23%
Cc1ccccc1NC(=O)CSc1[nH]c(=O)cc(C)c1C#N,3,-1.9%,-2,-3%,?,5.4,22µM*
O=C(OCc1cc(=O)n2ccsc2n1)c1ccccc1NCCO,.,.,7,-23%,-7%,.,.
COc1cc(-c2cn[nH]c2N)cc(OC)c1OC,0,-10%,2,20%,13%,0.1,12%
O=C(O)CCC(=O)Nc1nnc(C(F)(F)F)s1,7,-1.5%,5,2%,-10%,1.2,4%
C=CCn1c(SCC(=O)NC2(C#N)CCCCC2)nnc1-c1ccncc1,-5,.,9,7%,4%[15.4 µM],.,.
Cc1sc2ncnc(OCC(=O)NCc3cccs3)c2c1C,4,-1.9%,8,-3%,-2%,-1.6,3%
N=c1sccn1CC(=O)Nc1ccccc1Oc1ccccc1,-13,-2.0%,-3,-2%,1%,-0.7,-12%
CC(C)(C)C(=O)NCCn1ccc2ccccc21,-20,-4.6%,1,5%,-43%[inhibitor],-18,3%
Cc1ccc(C)c(-n2c(Cc3cc(=O)[nH]c(=O)[nH]3)nnc2SCC(=O)NCC2CCCO2)c1 (centres undefined),-19,2.2%,7,10%,13%,1.3,-3%
CCN(c1cccc(C)c1)S(=O)(=O)c1ccc(-c2ccc(=O)[nH]n2)o1,-35,-14%,4,-15%,86%,1.0,10%
O=C(/C=C/c1ccc(O)cc1)c1ccc(NC2=C(N3CCCCC3)C(=O)c3ccccc3C2=O)cc1,11,6.7%,11,-26%,-7%,?,?
CCCS(=O)(=O)NCCc1cc2ccc(C)cc2[nH]c1=O,-8,?,-13,-3%,5%,-2.3,6%
Cc1ccc(C)c(NS(=O)(=O)c2c(C)nc3sccn3c2=O)c1,-10,-1.7%,4,1%,-9%,-1.2,3%
CSCC[C@H](NC(=O)C1CCN(S(=O)(=O)c2ccc(C)cc2)CC1)C(=O)NCc1ccco1,-3,-2.2%,-11,5%,10%,1.9,-3%
CC(/C=C/C=C/c1ccccc1)=N/NC(=O)CNc1ccc(C)cc1,-43,-3.8%,-21,?,11%,9.9,-15%
CC(/C=N\NC(=O)c1cccnc1)c1ccccc1 (centres undefined),.,0.4%,9,-9%,13%,.,.
S=C(Nc1ccc2c(c1)OCO2)NC1CCN(Cc2ccccc2)CC1,-2,0.8%,-10,6%,17%,0.6,14%
CCOC(=O)CCCn1c(C)nc(=O)c(-c2ccccc2)c1C,13,-1.3%,-1,1%,-41%,0.4,15%
Cc1n[nH]c(C)c1CCOc1ccc(C(C)C)cc1,-9,0.4%,-7,-26%,-6%,0.1,-10%
CCCCSc1nsc(NC(C)=O)n1,-24,-0.8%,5,-3%,?,3.9,12%
CC1CN(C(=O)c2ccccc2Oc2ccccc2)CC(C)O1 (centres undefined),0,-1.9%,.,7%,-6%,0.3,15%
COc1cc(OC)cc(C(=O)NNC(=O)CCCOc2ccccc2)c1,3,-1.2%,3,11%,2%,.,.
CC(=O)NS(=O)(=O)c1ccc(N=NN2CCOCC2)cc1,-5,0.8%,-2,-5%,5%,6.7,13%
CCC(C)c1ccccc1NC(=O)COC(=O)c1ccc2[nH]c3c(c2c1)CCCC3 (centres undefined),3,32µM*,-13,-19%,-19%,3.0,20%
CC(=O)c1c(C(C)=O)c(C)n(NC(=O)c2ccc(Cl)cc2)c1C,2,1.1%,-14,-5%,-40%[inhibitor],2.8,6%
CC1CCCC(=C\c2ccccc2)/C1=N/O (centres undefined),-8,-0.6%,2,-13%,-3%,-0.1,3%
Nc1ccc2ccccc2c1C(=O)c1ccccc1,.,.,-21,2%,?,.,.

# Molecules above containing a tert-butyl group, in the order listed:
SMILES,TRPV1 potentiator,ClpP mod,CtBP-E1A inh,gsp antag,gsp agonist,Menin-MLL FL inh,Sfp inh
Cc1ccc(C(C(=O)NC(C)(C)C)N(Cc2ccco2)C(=O)CCC(=O)Nc2ccccn2)cc1 (centres undefined),-11,.,-17,5%,1%[15.4 µM],.,7%
CC(C)(C)C(=O)NCCn1ccc2ccccc21,-20,-4.6%,1,5%,-43%[inhibitor],-18,3%

# Structural class: those above containing a COOH group.
SMILES,TRPV1 potentiator,ClpP mod,CtBP-E1A inh,gsp antag,gsp agonist,Menin-MLL FL inh,Sfp inh
CCOc1ccc(S(=O)(=O)NC(Cc2c[nH]c3ccccc23)C(=O)O)cc1 (centres undefined),6,-0.3%,.,5%,-14%,12,8%
O=C(O)CCC(=O)Nc1nnc(C(F)(F)F)s1,7,-1.5%,5,2%,-10%,1.2,4%

# High-throughput results deposited in PubChem by National Center for Advancing Translational Sciences (NCATS).

# Rows are unselected; about 5.3% have a hit in one of these screens.
